NPR1 antag = Natriuretic polypeptide receptor (hNpr1) antagonism - Primary qHTS | 1.6% of 76,000 active | Potency, µM (highest dose often 46.3 µM), for inactives: top-dose activity change, negative = inhibition, hits mostly inhibitors | HEK293 hNpr1 GloSensor cGMP, ANP-stimulated luminescence | Atrial natriuretic peptide receptor 1 (Homo sapiens), P16066; active = well fitted inhibition curve with a large enough effect; inconclusive = small, poorly fitted or top-dose-only effect; inactive = no such curve, though single readings can be large or run the other way;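 further: nearly all actives have a fitted effect of over 60% in size; nearly all hits also lower the signal before the agonist is added; a reference antagonist and vehicle were the controls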
Target sequence (P16066 whole entry, looked up): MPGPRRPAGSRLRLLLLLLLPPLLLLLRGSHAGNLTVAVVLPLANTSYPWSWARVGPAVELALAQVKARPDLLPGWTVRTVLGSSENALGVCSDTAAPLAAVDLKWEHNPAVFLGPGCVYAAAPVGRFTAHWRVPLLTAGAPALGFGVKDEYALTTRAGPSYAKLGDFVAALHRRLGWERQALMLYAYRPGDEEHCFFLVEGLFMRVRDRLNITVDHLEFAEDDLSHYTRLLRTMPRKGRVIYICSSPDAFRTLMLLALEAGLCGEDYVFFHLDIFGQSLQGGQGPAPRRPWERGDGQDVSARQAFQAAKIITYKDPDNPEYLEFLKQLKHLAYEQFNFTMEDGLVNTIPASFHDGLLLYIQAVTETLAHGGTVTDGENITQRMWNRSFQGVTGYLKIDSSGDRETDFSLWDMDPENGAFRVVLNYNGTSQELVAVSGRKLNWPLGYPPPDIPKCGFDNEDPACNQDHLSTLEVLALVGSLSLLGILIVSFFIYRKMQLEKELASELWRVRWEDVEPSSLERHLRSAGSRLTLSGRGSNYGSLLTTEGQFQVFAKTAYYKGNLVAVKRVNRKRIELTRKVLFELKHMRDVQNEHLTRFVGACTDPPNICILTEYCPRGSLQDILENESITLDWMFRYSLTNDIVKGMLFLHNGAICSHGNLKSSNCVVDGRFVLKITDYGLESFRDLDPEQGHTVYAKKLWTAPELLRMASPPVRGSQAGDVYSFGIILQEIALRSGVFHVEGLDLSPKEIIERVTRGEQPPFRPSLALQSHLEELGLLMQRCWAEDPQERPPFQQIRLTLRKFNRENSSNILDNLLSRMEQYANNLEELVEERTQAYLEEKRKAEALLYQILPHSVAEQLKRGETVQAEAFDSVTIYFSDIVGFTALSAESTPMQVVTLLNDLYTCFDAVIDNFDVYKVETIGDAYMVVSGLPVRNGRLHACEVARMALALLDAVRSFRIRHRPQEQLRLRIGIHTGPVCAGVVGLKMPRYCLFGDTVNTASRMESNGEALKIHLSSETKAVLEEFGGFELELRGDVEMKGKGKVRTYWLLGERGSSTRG
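Compound pre-incubated 30 min at room temperature on GloSensor-loaded HEK293 cells stably carrying hNpr1 and the pGS-40F cGMP biosensor. Stimulation uses hNppA at 0.1 nM final; luminescence is taken at baseline and 20 min post-agonist.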
* marks the source's active call; other numbers are inactive results; ? = inconclusive; [ ] = remark or other dose. On the % scale 0 is the no-effect control and ±100 the full control effect; potency means the concentration at half of the fitted maximal effect. A portion of the library; rates above refer to the full screens.

SMILES | NPR1 antag
COCc1ncc(C)n1C1CCCN(C(=O)c2ccn(C)n2)C1 (stereo not drawn) | 0%
Cn1ncc(N2CCC(NC(=O)C3CCC3)CC2)cc1=O | 2%
Cc1cnc(C(=O)N[C@@H]2CCC[C@@H]2C(=O)N2CCC(N3CCCCC3)CC2)cn1 | -4%
CC(=O)N1CC2(Cc3ccccc31)CN([S+](=O)([O-])c1cccc(C(F)(F)F)c1)C2 | 7%
NC(=O)c1ccc(CC2CCNCC2)cc1 | 6%
CC(=O)N[C@@H]1[C@@H](NC(=O)Cc2cccs2)[C@H]2CCO[C@H]21 | 1%
c1ccc(Oc2cc3c(cn2)NCCN(Cc2ccc4[nH]ccc4c2)C3)cc1 | ?
CCCN1C(=O)Cc2ccccc2C1C(=O)NCc1ccc(Br)cc1 (stereo not drawn) | 4%
CN1C(=O)CC[C@]2(C(=O)N3CCN(c4ccccc4)CC3)CCCC[C@@H]12 | -6%
Cc1ncc(CC(=O)N2CCCC(C)(Cc3ccc4c(c3)OCO4)C2)c(=O)[nH]1 (stereo not drawn) | 8%
COc1ncccc1-c1cnc2[nH]cc(CC(=O)NC(C)C)c2c1 | -16%[70.6 µM]
O=C(NC1CCN(c2cc(-c3ccccc3)[nH]n2)CC1)c1ccc2ccccc2n1 | -24%
COc1cccc(CN2Cc3nc(-c4cnn(C)c4)ccc3OCC2=O)c1 | 1%[70.6 µM]
CC(=O)N1CCC(N[C@@H]2CO[C@H](CNS(=O)(=O)c3ccccc3)[C@H]2O)CC1 | -2%[70.6 µM]
O=C1NCCCCCCN(C(=O)CCC2CCCC2)[C@H]2CCCC[C@@H]12 | 1%
CC(C)n1cc(-c2cc(C(=O)N(C)Cc3cccnc3)c3cc(F)ccc3n2)cn1 | -2%
Fc1ccc2nc([C@H]3CCN(Cc4ccccc4F)C3)[nH]c2c1 | ?
CCNC(=O)c1ccc2c(c1)C1(CCCN(C)C1)CN2C (stereo not drawn) | -4%[70.6 µM]
Fc1ccccc1-c1noc2c1CN(Cc1cccn1-c1nccs1)CC2 | 0%
CN(C)C[C@@H]1CN(c2ncccn2)C[C@H]1NC(=O)c1cccc(F)c1 | 3%
COc1ccc(/C=C/c2ccc3c(c2)C(=O)N2C[C@@H](NC(=O)c4cccn4C)C[C@H]2C(=O)N3)cc1 | -12%
CN(Cc1cccnc1)C1CN(C(=O)C2CC2)C1 | -2%
CCCc1noc(-c2cccn3c(CNC(=O)c4ccc(C)cc4)nnc23)n1 | -12%
COc1ccc(-c2noc(CC3CCN(C(=O)c4ccc(C)nc4)CC3)n2)cc1 | 7.1µM*
CN1C(=O)C(CC(=O)NCc2ccccc2F)Sc2ncccc21 (stereo not drawn) | -4%

More compounds
SMILES | NPR1 antag
CC1=C(C(=O)N2CCC(CCC(=O)Nc3ccc4c(c3)OCCO4)CC2)OCCO1 | 1%
Cc1nn2c(c1-c1ccccc1[S+](C)(=O)[O-])N(Cc1ccccc1F)CCC2 | -8%[70.6 µM]
COCc1ccc(C(=O)N2CCN(CCO)CC(O)C2)cc1 (stereo not drawn) | -2%
COCCNc1ncccc1-c1noc([C@@H]2CCCN2C2CCC2)n1 | 8%[70.6 µM]
Cc1ccc(OC2(C(=O)NCc3ccccc3-n3ccnc3)CCNCC2)cc1 | 3%
CC(C)(C)CC(=O)N1CCN2C(=O)N(CC(N)=O)C(=O)[C@@H]2C1 | 2%[70.6 µM]
CN(C)CC(=O)Nc1ccc2n(c1=O)C[C@H]1C[C@@H]2CN(C(=O)c2ccc(-c3ccccc3)cc2)C1 | 2%
COc1ccc(CC(=O)N2CCC[C@H]2c2nc(-c3ccccc3)no2)cc1 | -9%
CC(C)NC(=O)C[C@@H]1O[C@H](CNS(=O)(=O)c2ccccc2)[C@@H](O)[C@H]1O | 1%[70.6 µM]
O=C(O)C1CCN(C(=O)N2CC3CC(C2)[C@H]2CCCC(=O)N2C3)CC1 (stereo partly drawn) | 2%
O=C1NCCN2CC3(CCN(C(=O)Nc4ccccc4F)CC3)CC12 (stereo not drawn) | 3%
CCn1cc(CN2CCC3(CC2)CCN(Cc2ncc[nH]2)CC3CO)cn1 (stereo not drawn) | 1%
O=C(C[C@@H]1CCNC[C@@H]1Cc1cc(-c2ccc(F)cc2)on1)NCc1ccc(F)cc1 | -4%[70.6 µM]
Cc1cc(C)n(CCC(=O)N2CC(F)(F)C[C@H]2c2nnc(C)o2)n1 | -1%
CN(CCc1ccccn1)C(=O)[C@@]12CCCC[C@H]1N(C)C(=O)CC2 | -2%
CCc1cc(=O)n(CC(=O)NCc2ccc(OC)cc2)c(N2CCOCC2)n1 | 0%
CNC(=O)[C@@H]1CN(C(=O)c2sccc2C)C[C@H]1c1nc(COC)no1 | 0%
COc1ccc(C(=O)N2CCC3(CC2)N=C(c2cccc(Br)c2)NO3)cc1OC | ?
COc1cccc(CN2C(=O)OC3(CCN(Cc4ccc5c(c4)CCO5)CC3)C2(C)c2cccnc2)c1 (stereo not drawn) | 2%
CNc1ncc(C(=O)N2CC[C@@](O)(COC)C(C)(C)C2)cn1 | 0%
O=C(O)C[C@@H]1CCN(C(=O)C2CCCC2)C[C@@H]1CCN(CCN1CCOCC1)c1ccccc1 | 4%
CC(C)CN1CCN(C2CCOC3(CCN(C(=O)c4ccnn4C)CC3)C2)CC1 (stereo not drawn) | -10%
CC(O)c1cc2n(n1)CCN(C(=O)c1cc(=O)n(C)c(=O)n1C)C2 (stereo not drawn) | 3%
CC(Oc1ccccc1)C(=O)N1CCC(n2cc(-c3nc(C(C)C)no3)nn2)CC1 (stereo not drawn) | -16%
CCN1C(=O)CCN(C(=O)NC2CCCCC2)CC12CCOCC2 | 3%

(more compounds)
SMILES | NPR1 antag
Cc1cc(-c2cnc3[nH]cc(CC(=O)NCc4cccnc4)c3c2)ccn1 | 1%[70.6 µM]
CCOC(=O)c1cccc(NC(=O)N2CC[C@@H](CC(=O)O)[C@@H](CC)C2)c1 | 6%[70.6 µM]
c1ccc(-c2nc(-c3cnccn3)no2)c(OC2CNC2)c1 | 1%
Cc1ccc(-c2nc(C(=O)NC(C)c3ccc(F)cc3)no2)cc1 (stereo not drawn) | 4%
O=C(Cn1nnnc1CN1CCOCC1)N1CCN(c2ccc(Cl)cc2)CC1 | 22%
O=C1N(CCc2ccccc2)CCOC12CCN(Cc1ccc(F)c(Cl)c1)CC2 | ?
Cc1cnn(CCC(=O)N2C[C@@H](COc3ccccc3)[C@H](C(N)=O)C2)c1 | -1%
COCC1(CNC(=O)C2CCOCC2)C[C@@H](O)[C@@H](O)C1 (stereo partly drawn) | 1%[70.6 µM]
COCC1CN(C)CC12CCN(Cc1ccc(OC)c(Cn3ccnc3)c1)CC2 (stereo not drawn) | -5%
O=C(NCc1ccccn1)c1c(OCC2CC2)cc(=O)n2c1CCCCC2 | 1%
CCCn1c(C)cnc1CC1CCN(S(=O)(=O)c2cccs2)CC1 | -3%
Cc1cn2nc(C(=O)N3CCN(c4ccccn4)CC3)cc2c(N2CCCC2)n1 | -1%
COc1ccc(C2(C(=O)N3CCC(n4cc(-c5nc(C)no5)nn4)CC3)CC2)cc1 | -6%
O=C(NC1CCCCC1)C1CCN(C(=O)c2ncn3c2COC(c2ccc(Cl)cc2)C3)CC1 (stereo not drawn) | -3%
COc1ccc(CC(=O)Nc2ccc(=O)n3c2[C@@H]2C[C@@H](CN(S(=O)(=O)c4ccc(OC)cc4)C2)C3)cc1 | -12%
CCC(=O)Nc1cccc(C2OC(=O)N(Cc3ccc(C)cc3)C2C(=O)NCC2CCCO2)c1 (stereo not drawn) | -2%
COc1ccc(C(=O)NC2CCCN(c3cc(-c4ccc(F)cc4)[nH]n3)C2)cc1F (stereo not drawn) | -14%
Cc1nc2cc(S(=O)(=O)N3CCOCC3)ccc2n1CCNC(=O)C(C)O (stereo not drawn) | 1%
O=C(CC1CCCC1)N1CCC(Cc2nc(-c3ccc(F)cc3)no2)CC1 | 2.2µM*
CNC(=O)[C@@H](c1ccccc1OC)N1CCC[C@H]1C(=O)N1CCOCC1 | 3%[70.6 µM]
Cc1nnc([C@@H]2CC(F)(F)CN2C(=O)COc2ccccc2)o1 | -1%
CS(=O)(=O)N[C@H]1CCN2C(=O)c3cc(-c4cccc(C(F)(F)F)c4)ccc3NC(=O)[C@@H]2C1 | 0%
CS(=O)(=O)N[C@H]1CO[C@H]2[C@@H]1OC[C@@H]2Nc1nccc(-c2cccc(F)c2)n1 | 0%[70.6 µM]
Cc1nnc2n1CCC(NC(=O)c1cccn1C)CC2 (stereo not drawn) | 1%
COc1ccc(N2CC(c3noc(-c4ccc(OC(F)(F)F)cc4)n3)CC2=O)cc1 (stereo not drawn) | 1%

(continued)
SMILES | NPR1 antag
O=C1CCN(C(=O)CC2CCCCC2)CCCOCCN1 | 5%
Cc1ccc(NC(=O)N2CCC(CCNC(=O)C3CCC3)CC2)cc1F | -23%
Cc1cccc(C(=O)N2CCCN(C(=O)C3CC3)C(c3ccccc3)CC(=O)NCC2)c1 (stereo not drawn) | 6%
Cc1ccc(C2Cn3nnc(C(=O)N4CCC(C(=O)NCC(C)C)CC4)c3CO2)cc1 (stereo not drawn) | 1%
C[C@H]1[C@@H]2[C@@H](O)C([C@H](C)C(=O)N(C)Cc3ccccc3)CC[C@@]2(C)CC[C@@H]1NC(=O)Cc1ccccc1 (stereo partly drawn) | -4%
COCc1cn([C@H]2CO[C@H]3[C@@H]2OC[C@@H]3NCc2cccc(C#N)c2)nn1 | 4%[70.6 µM]
COc1cccc(CCC(=O)N[C@@H]2COCC[C@@H]2Oc2cccc(F)c2)c1 | -13%
O=C(NC1CCCCCC1)C1CCN(C(=O)c2ncn3c2COC(c2ccc(Cl)cc2)C3)CC1 (stereo not drawn) | -6%
CC(C)c1nnc(C2CN(C(=O)CC3CCCCC3)CC23CCOCC3)o1 (stereo not drawn) | -2%
CC1=C[C@@H](CNS(=O)(=O)c2ccc(C#N)cc2)[C@H](C(C)C)C[C@H]1CC(=O)NCc1ccc(C#N)cc1 | -7%
CCC(=O)N1CCc2sc(C(=O)NCc3cccnc3)cc2C1 | -1%
Cn1ccc2c(C(=O)NCc3cccnc3)nc(-c3cnn(Cc4ccccc4)c3)cc21 | -13%[70.6 µM]
Cc1cc2nc3n(c(=O)c2n1CC(=O)Nc1ccc(Cl)cc1F)CCCC3 | 0%
CN(C)C[C@@H]1CN(c2ccccn2)C[C@H]1NC(=O)NC(C)(C)C | 2%
Cn1nnnc1C1CCCN(C(=O)NCc2ccccc2)C1 (stereo not drawn) | -16%
CCn1cc(CN(CCOC)Cc2cccs2)ccc1=O | 1%
O=C1OC[C@@H]2CCN(Cc3ccc(F)cc3)Cc3ccc(F)cc3N12 | 3%[70.6 µM]
COC[C@H]1C[C@@H](NS(=O)(=O)c2ccccc2)[C@H](O)[C@@H]1O | 5%[70.6 µM]
Cn1cc(-c2cc3c(ccn3Cc3ccncc3)c(N3CCOCC3)n2)cn1 | -1%[70.6 µM]
O=C1Nc2ccc(-c3ccccc3F)cc2C(=O)N2CCN(C(=O)c3cccs3)C[C@H]12 | 1%
O=C(CN1C(=O)COc2ccc(C(=O)COc3ccc(F)cc3)cc21)NCCc1ccccc1 | -25%
Cc1ncccc1C(=O)N1CCCN(S(=O)(=O)c2ccccc2)CCC(=O)NCC1 | 1%
CC(C)Cc1ccc(S(=O)(=O)N2CCCC2c2nncn2Cc2ccncc2)cc1 (stereo not drawn) | -9%
O=C(c1ccc2c(c1)OCO2)N1C[C@@H](CO)[C@H](c2ccncc2)C1 | -2%
COCc1nc(C2CCN(C(=O)N(C)C)C2)no1 (stereo not drawn) | 1%
Cc1cc(C(=O)N2CCCC(c3[nH]ccc3C(N)=O)C2)c(C)n1Cc1ccco1 (stereo not drawn) | 11%
Cc1cc(C(=O)Nc2ccc([C@H]3OCC(=O)N(Cc4nccn4C)[C@@H]3CO)cc2)n(C)n1 | 5%
CN1C[C@@H](NC(=O)c2ccccc2)C[C@H]1c1nc(-c2cnccn2)no1 | -4%[70.6 µM]
O=C(CN1C(=O)CNC1=O)N1CCCN(C(=O)c2ccoc2)CC1 | 1%

Sorted by length of the SMILES (highest first): part of the list above
SMILES | NPR1 antag
C[C@H]1[C@@H]2[C@@H](O)C([C@H](C)C(=O)N(C)Cc3ccccc3)CC[C@@]2(C)CC[C@@H]1NC(=O)Cc1ccccc1 (stereo partly drawn) | -4%
CC1=C[C@@H](CNS(=O)(=O)c2ccc(C#N)cc2)[C@H](C(C)C)C[C@H]1CC(=O)NCc1ccc(C#N)cc1 | -7%
Cc1cc(C(=O)Nc2ccc([C@H]3OCC(=O)N(Cc4nccn4C)[C@@H]3CO)cc2)n(C)n1 | 5%
O=C1Nc2ccc(-c3ccccc3F)cc2C(=O)N2CCN(C(=O)c3cccs3)C[C@H]12 | 1%
O=C(CN1C(=O)COc2ccc(C(=O)COc3ccc(F)cc3)cc21)NCCc1ccccc1 | -25%
Cc1cc(C(=O)N2CCCC(c3[nH]ccc3C(N)=O)C2)c(C)n1Cc1ccco1 (stereo not drawn) | 11%
CN1C[C@@H](NC(=O)c2ccccc2)C[C@H]1c1nc(-c2cnccn2)no1 | -4%[70.6 µM]
COc1cccc(CCC(=O)N[C@@H]2COCC[C@@H]2Oc2cccc(F)c2)c1 | -13%
CC(C)Cc1ccc(S(=O)(=O)N2CCCC2c2nncn2Cc2ccncc2)cc1 (stereo not drawn) | -9%
Cc1cc2nc3n(c(=O)c2n1CC(=O)Nc1ccc(Cl)cc1F)CCCC3 | 0%
Cn1cc(-c2cc3c(ccn3Cc3ccncc3)c(N3CCOCC3)n2)cn1 | -1%[70.6 µM]
CC(C)c1nnc(C2CN(C(=O)CC3CCCCC3)CC23CCOCC3)o1 (stereo not drawn) | -2%
CCC(=O)N1CCc2sc(C(=O)NCc3cccnc3)cc2C1 | -1%
Cn1nnnc1C1CCCN(C(=O)NCc2ccccc2)C1 (stereo not drawn) | -16%
COCc1nc(C2CCN(C(=O)N(C)C)C2)no1 (stereo not drawn) | 1%
CCn1cc(CN(CCOC)Cc2cccs2)ccc1=O | 1%
